HNF4A DNA FP: change in binding of human HNF4 alpha to DNA; P41235; HNF4a-FITC DNA binding, fluorescence polarization, 1 h; activity change, % at 10 µM; actives 0.3% (n = 360,000); AID 1224865; in the data active = activity change above about 30%, passing the limit was not always enough;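 also: controls were the assay level and a saturating level of protein; the project sought stronger binding though the title names inhibitors; some compounds called inactive have numbers as strong as hits; positive values seem to mean higher polarization but the record does not say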
Target sequence (P41235 whole entry, looked up): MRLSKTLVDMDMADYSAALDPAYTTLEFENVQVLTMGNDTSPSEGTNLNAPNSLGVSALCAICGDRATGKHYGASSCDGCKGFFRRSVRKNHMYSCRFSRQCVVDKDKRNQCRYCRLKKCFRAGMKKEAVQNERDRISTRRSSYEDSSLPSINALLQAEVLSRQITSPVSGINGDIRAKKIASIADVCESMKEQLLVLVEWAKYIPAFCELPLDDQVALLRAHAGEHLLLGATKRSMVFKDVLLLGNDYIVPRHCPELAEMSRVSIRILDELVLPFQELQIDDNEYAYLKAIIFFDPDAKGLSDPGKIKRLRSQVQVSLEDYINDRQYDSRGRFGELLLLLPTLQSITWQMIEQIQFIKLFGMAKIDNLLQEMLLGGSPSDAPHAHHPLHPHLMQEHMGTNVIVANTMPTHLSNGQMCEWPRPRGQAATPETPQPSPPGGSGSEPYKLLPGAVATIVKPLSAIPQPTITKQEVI
* hit, by the source's call. Only part of the results is shown (hit frequency here may not be typical).

SMILES | HNF4A DNA FP
CCCCC(c1nc2ccccc2[nH]1)N(C(=O)c1ccccc1)c1ccccc1[N+](=O)[O-] (stereo unspecified) | 4.2
CC(=O)NC(c1ccccc1)c1nc(/C=C/c2ccccc2)cs1 (stereo unspecified) | 1.1
CCc1nc2ccc(C(=O)NCCN(C)C)cn2c1N(CC)CCOC | -0.4
CCCCC[C@@H]1CCCCC[C@@H](O)C[C@@H](O)[C@H](O)/C=C/C(=O)O1 | 5.2
O=C(Nc1ccc(OC(F)(F)F)cc1)N1CCc2nc(NCc3cccc(Oc4ccccc4)c3)ncc2C1 | 4.4
NC(Cc1ccc(C(F)(F)F)cc1)c1csc(Nc2ncccn2)n1 (stereo unspecified) | 0.2
CC(C)(C)S(=O)(=O)/C(C#N)=C/c1cccn1S(=O)(=O)c1ccccc1 | -2.2
O=C1NC[C@H](Cc2ccc(O)cc2)N(C[C@H]2CCCN2C[C@H](Cc2ccc(O)cc2)N2C[C@H](Cc3ccc(O)cc3)N(CCc3ccccc3)C(=O)C2=O)C1=O | 1.5
CC(C)(C)NC(=O)C(c1ccc(C#N)cc1)n1c(=O)c(-c2cc3ccccc3[nH]2)nc2ccccc21 (stereo unspecified) | 5.7
C[C@H](O)C#Cc1cnc2c(c1)C(=O)N([C@H](C)CO)C[C@@H](C)[C@@H](CN(C)Cc1ccc(-c3ccccc3)cc1)O2 | 3.9
Cn1nc(C(C)(C)C)cc1C(=O)N1CCCCC1c1cc(C(=O)Nc2ccccc2Cl)no1 (stereo unspecified) | -0.1
CCc1nc2ccc(C(=O)NC3CCN(Cc4ccccc4)CC3)cn2c1N(CC)CCOC | 2.5

Sorted by molecular weight (largest number first): some entries from above.
SMILES | HNF4A DNA FP
O=C1NC[C@H](Cc2ccc(O)cc2)N(C[C@H]2CCCN2C[C@H](Cc2ccc(O)cc2)N2C[C@H](Cc3ccc(O)cc3)N(CCc3ccccc3)C(=O)C2=O)C1=O | 1.5
O=C(Nc1ccc(OC(F)(F)F)cc1)N1CCc2nc(NCc3cccc(Oc4ccccc4)c3)ncc2C1 | 4.4
CC(C)(C)NC(=O)C(c1ccc(C#N)cc1)n1c(=O)c(-c2cc3ccccc3[nH]2)nc2ccccc21 (stereo unspecified) | 5.7
Cn1nc(C(C)(C)C)cc1C(=O)N1CCCCC1c1cc(C(=O)Nc2ccccc2Cl)no1 (stereo unspecified) | -0.1
CCCCC(c1nc2ccccc2[nH]1)N(C(=O)c1ccccc1)c1ccccc1[N+](=O)[O-] (stereo unspecified) | 4.2
CC(C)(C)S(=O)(=O)/C(C#N)=C/c1cccn1S(=O)(=O)c1ccccc1 | -2.2
CCc1nc2ccc(C(=O)NCCN(C)C)cn2c1N(CC)CCOC | -0.4

Next structures
SMILES | HNF4A DNA FP
COc1ccc(CN2C(=O)CN(S(C)(=O)=O)CC2(C)C(=O)Nc2c(C)cccc2C)cc1 (stereo unspecified) | 1.5
COc1ccc(C(=O)c2[nH]c(N)c(C(N)=O)c2-c2ccc(OC)c(OC)c2)cc1 | 1.4
COc1ccc(CC(N)c2csc(NC(=O)Nc3ccccc3-c3ccccc3)n2)cc1 (stereo unspecified) | 0.6
CN(C)CCN1CCN(c2cc(-c3cccc(Cl)c3)nc3ccnn23)CC1 | 1.0
CC(=NNC1=NCCN1)c1cnn(C2=NCCN2)c1C | 1.6
CC(C)c1ccc(NC(=O)C2(C)Cc3c(-c4ccc5c(c4)OCO5)ccnc3O2)cc1 (stereo unspecified) | 3.5
CCOc1cc(OCC)cc(C(=O)N2CCC[C@H]2C(=O)N2CCC[C@H]2C(=O)NCc2ccncc2)c1 | -3.3
O=C(NCc1ccccc1Cl)[C@H]1CCCN1C(=O)[C@H]1CCCN1C(=O)c1cccc2ccccc12 | 0.5
CSc1ccc(CN2C(=O)C(C)Sc3ccc(C(C)=O)cc32)cc1 (stereo unspecified) | -4.8
COC(=O)[C@@]1(Sc2ccc(C)cc2)CC(=O)N[C@@H]1c1ccco1 | -0.1
COC(=O)[C@]12CCCCC=C1N(Cc1ccco1)C(=O)[C@H](CC(=O)NCCCN1CCCC1=O)C2 | 5.7
COc1cc(NS(=O)(=O)c2ccc(C)cc2)c2c(c1N)C(=O)c1ccccc1C2=O | -0.8

Quoted from the results shown for reference:
SMILES | HNF4A DNA FP
COC(=O)[C@]12CCCCC=C1N(Cc1ccco1)C(=O)[C@H](CC(=O)NCCCN1CCCC1=O)C2 | 5.7
COc1cc(NS(=O)(=O)c2ccc(C)cc2)c2c(c1N)C(=O)c1ccccc1C2=O | -0.8

New compounds follow:
SMILES | HNF4A DNA FP
CC1CCCCc2nc3c(c(=O)n21)CCCC3 (stereo unspecified) | 2.4
OCCNc1ncnc2c1ncn2[C@H]1CN(Cc2ccco2)C[C@@H](CO)O1 | -3.8
COC(=O)[C@@]12C[C@@H](CC(=O)NCc3ccc(OC)c(OC)c3)C(=O)N(Cc3ccco3)C1=CCC(C)(C)C2 | -1.8
CC1(C(=O)NCc2ccccc2)CCC(=O)N1CC(F)(F)F (stereo unspecified) | 5.5
COc1cccc(CNC(=O)[C@@H]2CCCN2C(=O)[C@H]2CCCCN2C(=O)c2cccc3ccccc23)c1 | -0.8
C[C@H]1CNC(=O)c2c(C(=O)N3CCN(C(=O)OC(C)(C)C)CC3)ncn21 | -4.2
CC(C)NC(=O)c1cc(C2CCCCN2S(=O)(=O)c2ccc(C#N)cc2)on1 (stereo unspecified) | -3.1
Cc1csc(SCC(=O)Nc2ccc(CC#N)cc2)n1 | 2.6
COC(=O)C1=CN(c2ccc(Oc3ccccc3)cc2)C(N)=C(C#N)C1c1ccccc1 (stereo unspecified) | -0.4
COCCNC(=O)C1CCCN(C(=O)c2oc3ccccc3c2C)CC1 (stereo unspecified) | 1.0
C#CCN(C[C@H]1[C@H](OC(=O)Nc2cccs2)[C@H](OC(=O)Nc2cccs2)C[C@H]2C(=O)N(c3ccccc3)C(=O)[C@@H]12)S(=O)(=O)c1ccc(C)cc1 | 1.9
C[C@@H](NC(=O)[C@H]1O[C@@H](n2cnc3c(N)ncnc32)[C@H](O)[C@@H]1O)c1cccc2ccccc12 | 2.2
CCOc1ccc(CCN2C(=O)C(=O)N([C@@H](Cc3ccccc3)CN3CCC[C@H]3CN3C(=O)C(=O)NC[C@@H]3Cc3ccc(O)cc3)C[C@@H]2Cc2ccc(O)cc2)cc1 | 1.2
CC1=C(C(=O)N2CCCCCC2)CC(CC(=O)NC2CCCCC2)C(=O)N1Cc1ccc(F)cc1 (stereo unspecified) | -0.2
COC(=O)C(C(=O)OC)c1ccccc1CNS(=O)(=O)c1ccc(C)cc1 | 4.3
CC1(Cc2cccc(C(N)=O)c2)C(=O)Nc2c(Cl)cccc21 (stereo unspecified) | -0.9
COc1cc(CN2C[C@@H](CO)O[C@@H](n3cnc4c(NCCCO)ncnc43)C2)cc(OC)c1OC | 2.4
Cc1ccccc1CN1C(=O)CN(S(C)(=O)=O)CC1(C)C(=O)Nc1ccc2c(c1)OCCO2 (stereo unspecified) | 0.8
COc1cc(NC(=O)c2cccc3c(-c4cccnc4)coc23)cc(OC)c1OC | -1.9
CCCCc1c(-c2ccc(OC)c(OC)c2)ncn1CCc1ccccc1OC | 0.3
COc1cc(N(C)C)ccc1[C@]1(O)C(=O)N(C)c2ccc(Br)cc21 | -2.2
CC(=O)NC(c1cccc(F)c1)c1nc(/C=C/c2ccccc2)cs1 (stereo unspecified) | 1.5
CC(C)c1ccc(CC(=O)N2CCC2(C)C(=O)NCCC#N)cc1 (stereo unspecified) | -0.4
C[C@@H]1ON(C)[C@H]2C[C@H]3c4[nH]c5ccc(-c6ccc7c(c6)OCO7)cc5c4CCN3C(=O)[C@@H]12 | 3.2
COC(=O)C[C@H]1CC[C@@H](NC(=O)c2ccncc2)[C@@H](CO)O1 | 0.0
CC(O)(c1cccc(F)c1)c1nc(-c2cccc(C(=O)O)c2)cs1 (stereo unspecified) | 2.1
C[C@H]1CN([C@@H](C)CO)S(=O)(=O)c2ccc(Br)cc2O[C@@H]1CN(C)Cc1ccccc1 | 4.1
C[C@@H]1CCCCO[C@@H](CN(C)S(=O)(=O)c2ccccc2)[C@@H](C)CN([C@H](C)CO)C(=O)c2cc(NS(=O)(=O)c3ccc(F)cc3)ccc2O1 | 0.1
COc1ccc(-c2nc3c4ccccc4ccn3c2Cc2ccc(C)cc2)cc1OC | 3.8
CCC(=O)N1CCCC1(C)C(=O)Nc1ccc(C)c(C)c1 (stereo unspecified) | 2.2
CSCCC(c1nc2ccccc2[nH]1)n1c(=O)c(-c2cccnc2)nc2ccccc21 (stereo unspecified) | -3.9
Cc1oc(-c2ccc(Cl)cc2)cc1C(=O)N1CCC1(C)C(=O)O (stereo unspecified) | 1.0
CCCCNC(=O)C(NC(=O)c1cccc(C(F)(F)F)c1)C(=O)c1ccccc1 (stereo unspecified) | -4.4
O=C(NC1CCCC1)C(C1CC1)n1c(-c2ccccn2)nc2ccccc21 (stereo unspecified) | 0.7
Nc1nc(N)c(N=O)c(Nc2ccc(Cl)c(Cl)c2)n1 | -7.8
CCOC1=C2[C@H](c3ccccc3)N(S(=O)(=O)c3ccc(C)cc3)[C@H](C(C)C)[C@H]2n2c(=O)n(-c3ccccc3)c(=O)n2C1 | -4.2
Cc1ccc(C(O)c2ncc(-c3ccccc3C)[nH]2)cc1 (stereo unspecified) | -0.8
OC[C@@H]1CN(Cc2cccs2)C[C@H](n2cnc3c(N4CCOCC4)ncnc32)O1 | -0.8
CCc1ccc(N2CC(C(=O)N(CC)CC(=O)Nc3c(F)cccc3F)CC2=O)cc1 (stereo unspecified) | 8.1
COC(=O)C[C@H]1C=C[C@@H](NC(=O)Nc2cccc(OC)c2)[C@@H](CO)O1 | 4.5
CN(C)Cc1csc(NC(=O)Nc2ccccc2Cc2ccccc2)n1 | -2.5
COc1ccc(OC)c2c1C(=O)CC2C (stereo unspecified) | -0.1
CCOc1ccc(CCN2C(=S)N([C@@H](Cc3ccc(O)cc3)CN3CCC[C@@H]3CN3C(=S)NC[C@@H]3Cc3ccccc3)C[C@@H]2CC(C)C)cc1 | 1.3
CC(C)c1cccc(-c2csc(C(C)(O)c3ccccc3)n2)c1 (stereo unspecified) | 1.4
CC(O)(c1cccnc1)c1nc(-c2ccc3ccccc3c2)cs1 (stereo unspecified) | -1.9
COc1ccc(S(=O)(=O)N2CCCC2CNC(=O)C(=O)NC2CCCC2)cc1 (stereo unspecified) | -1.8
CCCC[C@@H]1CNC(=O)C(=O)N1CCc1cccc(F)c1 | 1.1
CC(C)Nc1nc(-c2ccccc2F)c2sc(-c3ccccc3)cc2n1 | 5.8
CC(=O)Nc1cccc(-c2csc(C(O)c3cccc(Cl)c3)n2)c1 (stereo unspecified) | -2.4
COC(=O)[C@@]1(Cc2ccc(OC)cc2)[C@H]2c3cc(C(=O)N4CCCC4)n(Cc4ccc(C)c(F)c4F)c3C[C@H]2CN1C(=O)c1ccccc1 | -2.9
CC(=O)NC(c1ccccc1)c1nc(-c2ccccc2)cs1 (stereo unspecified) | -2.2
CCCS(=O)(=O)NC(=O)C1(C)CCCN(C(=O)COc2ccccc2)C1 (stereo unspecified) | 2.9
Cc1ccccc1-c1ccc(CN2C(C)C(=O)N(Cc3cn(Cc4ccco4)nn3)CCS2(=O)=O)cc1 (stereo unspecified) | -4.7
CC1(C(=O)NS(C)(=O)=O)CCN1C(=O)CC(c1ccccc1)c1ccccc1 (stereo unspecified) | -0.6
Cc1c(C)c2c(OCC(=O)NCC3CCC(C(=O)O)CC3)cc3c(c2oc1=O)CCC(C)(C)O3 (stereo unspecified) | 2.7
CCCCCc1c(CC)ncn1CCc1ccccc1OC | 3.9
O=C(NCc1ccccn1)[C@@H]1CCCN1C(=O)[C@@H]1CCCN1C(=O)c1ccccc1 | -0.5
CCc1nc2c(OCc3ccc(Cl)cc3)cccn2c1N(C)C(=O)c1ccncc1 | -3.5
Cc1ccccc1C(=O)NCC(=O)OCC(=O)NNC(=O)c1ccccc1F | -1.7
C[C@H](NC(=O)[C@@H]1CCCN1C(=O)[C@@H]1CCCN1C(=O)c1ccccc1)c1ccccc1 | 0.2

3 entries already listed, ordered by the value under HNF4A DNA FP, rising.
smiles,HNF4A DNA FP
CC(=O)Nc1cccc(-c2csc(C(O)c3cccc(Cl)c3)n2)c1 (stereo unspecified),-2.4
CC(=O)NC(c1ccccc1)c1nc(-c2ccccc2)cs1 (stereo unspecified),-2.2
CCCS(=O)(=O)NC(=O)C1(C)CCCN(C(=O)COc2ccccc2)C1 (stereo unspecified),2.9

(cont.)
SMILES | HNF4A DNA FP
COc1ccc(C(N)c2csc(Nc3ccc(S(C)(=O)=O)cc3)n2)cc1 (stereo unspecified) | -0.4
COc1ccc(N=C(C)C2C(=O)c3ccccc3C2=O)cc1 | 2.2
CN(C)c1ncnc2c1ncn2[C@H]1CN(Cc2ccc(F)cc2)C[C@@H](CO)O1 | -3.1
COc1ccc(Cl)cc1Cn1c(C)c(C(=O)NCc2ccc(F)cc2)sc1=O | 0.5
COC(=O)C1(C(=O)OC)C/C=C\CCN(S(=O)(=O)c2ccccc2[N+](=O)[O-])CC1 | 0.6
CCCNC(=O)N(C)C[C@H]1Oc2ncc(C#CCc3ccccc3)cc2C(=O)N([C@H](C)CO)C[C@H]1C | 7.2
CC(=O)Nc1cc(-c2cccc(NS(C)(=O)=O)c2)cn2c(-c3ccc(F)c(Cl)c3)cnc12 | 2.2
NC(COCc1ccccc1)c1csc(Nc2ccc(S(N)(=O)=O)cc2)n1 (stereo unspecified) | -0.4
CC1(C(=O)NCc2ccccc2)CSCC(=O)N1CCOc1ccccc1 (stereo unspecified) | -0.2
CN(C)CCNC(=O)c1cccc(-c2cc(NC=O)c3ncc(-c4cccc(C(F)(F)F)c4)n3c2)c1 | 10.0
O=C(O)c1ccc(-c2nn3c(=O)cc(N4CCNCC4)nc3s2)cc1 | -2.1
COc1cc(C(O)c2nc(-c3cnn(C)c3)cs2)ccc1F (stereo unspecified) | 4.4
CC(C)C[C@H]1CNC(=S)N1C[C@H]1CCCN1C[C@H](Cc1ccc(O)cc1)N1C[C@H](Cc2ccc(O)cc2)N(CCc2ccccc2)C1=S | 2.4
CCCCn1nc(C(=O)NC2CCCCC2)c2ccccc2c1=O | 1.7
Cc1cc(C(=O)CCC(=O)Nc2ccc(C(N)=O)cc2)c(C)s1 | -0.8
CCCNC(=O)C1(C)CCN(Cc2ccc3ccccc3c2Br)C1 (stereo unspecified) | -4.1
COc1ccccc1CNC(=O)C(=O)NCC1CCCN1S(=O)(=O)c1cc(C)ccc1C (stereo unspecified) | -4.8
Nc1nc2ccc(Cl)cc2cc1C(=O)NCCCN1CCOCC1 | -4.2
